# WNV NS2B-NS3 inh – inhibitors of WNV NS2B-NS3 protease, primary screen, biochemical, fluorogenic substrate; 65,000 compounds, 0.18% hits; z-score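 (tested at a level between 10 and 100 µM)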; fluorogenic substrate Ex360/Em465; active compounds read low; AID 577, 2007;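 active = z-score at -3 or under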;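 note: score is relative to mean and spread of the compound wells of a plate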
# Target sequence (P06935 1371-1501 limits assumed): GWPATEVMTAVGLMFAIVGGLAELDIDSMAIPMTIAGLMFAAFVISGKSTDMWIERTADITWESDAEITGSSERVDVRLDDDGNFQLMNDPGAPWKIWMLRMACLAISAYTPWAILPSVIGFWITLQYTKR
# Target sequence (P06935 1502-1679 limits assumed): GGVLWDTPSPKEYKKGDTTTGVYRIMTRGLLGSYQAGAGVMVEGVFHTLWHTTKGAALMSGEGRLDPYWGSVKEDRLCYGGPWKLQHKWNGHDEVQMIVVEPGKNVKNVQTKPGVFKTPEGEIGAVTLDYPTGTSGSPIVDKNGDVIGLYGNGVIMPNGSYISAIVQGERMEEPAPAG
# Hsc70 – Hsc70 inhibitors, probe displacement, primary screen, biochemical, fluorescence polarization (AID 568) | Heat shock cognate 71 kDa protein (Homo sapiens) | Hsc70 fluorescence polarization, probe displacement; higher % means a stronger effect; strong numbers were not always called active | displacement, % at 20 µM, or IC50 in µM where a hit was titrated | 83,000 tested, under 10 active;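 active = displacement above 50% without optical interference and an IC50 on retest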;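 note: ATPase domain with a fluorescein-tagged ATP probe; 0% = vehicle and 100% = excess ADP; read after one hour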
# MT1-MMP promoter – inhibitors of MT1-MMP promoter transcription, cell-based, luciferase reporter, luminescence (AID 618); 87,000 compounds, 0.62% hits; calls from a first round at 10 µM; hits with a dose series show EC50 in µM; MT1-MMP promoter luciferase reporter cells, luminescence;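 active = over half of the reporter light lost at 10 µM or EC50 under 50 µM; inactive = the rest and hits that failed the dose series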;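 note: actives suppress MT1-MMP promoter-driven transcription so potencies describe inhibitors; HT1080 fibrosarcoma cells; overnight exposure; toxic or luciferase-blocking compounds were not removed from the actives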
# The depositor's hits bear a star; i = inactive; . = no result given. This is a subset; the hit share may differ from the screen's.
SMILES,WNV NS2B-NS3 inh,Hsc70,MT1-MMP promoter
COc1ccc(C(=O)CN2C(=O)NC3(CCCc4ccccc43)C2=O)cc1OC (stereo unspecified),0.96,-2.9%,i
Cc1ccccc1NS(=O)(=O)c1cc(C(=O)N2CCCC2)ccc1C,0.2,-0.1%,i
Cc1noc(C)c1C(=O)OCC(=O)NCCc1ccc(Cl)cc1,-0.39,-5.8%,i
COc1cccc(CNC(=O)c2cc3ccccn3n2)c1,-0.35,0.0%,i
CCN(CC)CCNC(=O)c1cn(CC)c2ccc(S(=O)(=O)N(C)C)cc2c1=O,2.3,5.6%,i
Cn1c(=O)cc(SCC(=O)NCc2cccnc2)c2ccccc21,-0.3,2.8%,i
O=C(CSc1nc2c(c(=O)n1-c1ccc(F)cc1)SCC2)N1CCCC1,-0.29,-9.7%,i
O=C(COc1ccc(S(=O)(=O)NCCc2ccccc2)cc1)N1CCCC1,-1.5,-3.8%,i
Cc1cccc(C)c1Nc1nc2ccccc2o1,-0.12,-2.0%,i
CC(Oc1ccc(NC(=O)c2ccco2)cc1)C(=O)N1c2ccccc2CC1C (stereo unspecified),-0.17,4.5%,i
COc1ccc(-c2ccc(OC)cc2)cc1,.,3.3%,i
O=C(c1nsc(Cl)c1Cl)N1CCCCC1,-0.66,2.0%,i
CC(C)Oc1ccc(C(=O)Nc2ccc(N3CCCC3)cc2)cc1,1.2,-5.3%,i
COc1cccc(-c2nnc(-c3ccc(C(F)(F)F)cc3)o2)c1,.,-0.2%,i
Cc1ccc(C)c(N=C2CCCN2Cc2ccccc2)c1C#N,.,-1.3%,i

# Among those listed so far, these contain a carbonyl joined to an NH by a bond outside any ring.
SMILES,WNV NS2B-NS3 inh,Hsc70,MT1-MMP promoter
Cc1noc(C)c1C(=O)OCC(=O)NCCc1ccc(Cl)cc1,-0.39,-5.8%,i
COc1cccc(CNC(=O)c2cc3ccccn3n2)c1,-0.35,0.0%,i
CCN(CC)CCNC(=O)c1cn(CC)c2ccc(S(=O)(=O)N(C)C)cc2c1=O,2.3,5.6%,i
Cn1c(=O)cc(SCC(=O)NCc2cccnc2)c2ccccc21,-0.3,2.8%,i
CC(Oc1ccc(NC(=O)c2ccco2)cc1)C(=O)N1c2ccccc2CC1C (stereo unspecified),-0.17,4.5%,i
CC(C)Oc1ccc(C(=O)Nc2ccc(N3CCCC3)cc2)cc1,1.2,-5.3%,i

# (next part)
SMILES,WNV NS2B-NS3 inh,Hsc70,MT1-MMP promoter
CCOC(=O)c1ccc(Nc2ccc(-c3ccc(OC)c(OC)c3)nn2)cc1,-0.73,-1.3%,i
Cc1ccc(-c2nnn(CC(=O)N(c3ccccc3)C(C(=O)NC(C)(C)C)c3cccs3)n2)o1 (stereo unspecified),.,-1.7%,i
CCCOc1ccccc1N1C(=O)CC(N2CCOCC2)C1=O (stereo unspecified),1.1,2.9%,i
CC(CCO)Nc1nc2c(c(=O)n(C)c(=O)n2C)n1Cc1cccc(Br)c1 (stereo unspecified),1.6,2.6%,i
Cc1c(Cl)c(C(=O)NC2C3CC4CC(C3)CC2C4)nn1C (stereo unspecified),.,-1.2%,i
Cc1cc(Cl)ccc1OCCCC(=O)Nc1cccnc1,-1.3,7.1%,i
Cc1nc(SCC(=O)Nc2cc(C)on2)c2c3c(sc2n1)CCCC3,0.72,-5.8%,i
COc1ccc(CNC(=O)C(OC(=O)c2ccco2)c2ccc(OC)cc2)cc1 (stereo unspecified),.,-4.1%,i
CNC(=O)C1CCCN1S(=O)(=O)c1ccc(OC)cc1 (stereo unspecified),-1,-2.9%,i
Clc1c(-c2nnc3n2CCC3)sc2ccccc12,-0.13,7.2%,i
Cc1ccc(C(=O)C2CCN(CC(=O)Nc3ccc4c(c3)OCCO4)CC2)cc1,-1.6,-5.6%,i
N[C@@]12CCc3nonc3[C@]1(O)CC(c1ccccc1)=[N+]2[O-],0.59,-6.0%,i
CC1(C)C(=O)N(OCc2ccccc2)C(C)(C)C(=O)N1OCc1ccccc1,.,-2.2%,i
Cc1cc(C(F)(F)F)c(C#N)c(=O)[nH]1,.,-1.6%,i
O=C(CSc1nnc(C2CC2)n1Cc1ccccc1)N1CCN(S(=O)(=O)c2ccccc2)CC1,0.13,-2.6%,i
COc1ccc(CNC(C)(C)C)cc1Cl,.,1.6%,i
CCCCOC(=O)Nc1ccccc1C(=O)OC,.,-4.0%,i
CC1(C)OC(=O)C2(Cc3ccccc3N3CCCCC32)C(=O)O1 (stereo unspecified),0.56,1.8%,i
O/N=C(\c1ccc(Cl)cc1Cl)c1ncc(C(F)(F)F)cc1Cl,.,8.3%,i
CCOC(=O)N1CCN(C(=O)c2ccc3c(=O)n(-c4ccc(OC)cc4OC)c(=S)[nH]c3c2)CC1,-0.33,3.8%,i
Cc1nnc2ccc(N3CCN(c4ccccn4)CC3)nn12,-0.26,-1.9%,i
COC(=O)c1cc(COc2ccc3ccc(=O)oc3c2)c(C)o1,-0.08,-7.5%,i
CC1CCN(S(=O)(=O)c2ccc(NC(=O)CN3CCN(C)CC3)cc2)CC1,-0.13,6.6%,i
COc1ccc(Nc2ncc3c(n2)CC(c2ccccc2)CC3=O)cc1 (stereo unspecified),-0.93,-3.9%,i
NC(=O)CSc1nc2sc3c(c2c2ncnn12)CCCC3,0.002,-3.0%,i
Cc1ccc2[nH]c(=O)c(CN(Cc3nnnn3C3CCCC3)C3CCCCC3)cc2c1,0.71,-3.0%,i
Cc1ccc(CCNC(=O)CS(=O)Cc2nc(-c3cccc(C)c3)oc2C)cc1 (stereo unspecified),-1.1,3.0%,i
c1ccc(-c2csc(N3CCN(c4ccccn4)CC3)n2)cc1,1.6,2.2%,i
CCCc1nc(S(=O)(=O)Cc2ccc(Cl)cc2Cl)n[nH]1,0.34,1.2%,i
CC(C)CCn1nnnc1C(c1ccc(N(C)C)cc1)N1CCN(C(=O)c2ccco2)CC1 (stereo unspecified),-0.27,-4.4%,i
COc1cc(-c2nn3c(C4CCCCC4)nnc3s2)cc(OC)c1OC,-0.86,-2.6%,i
CC12CCC(c3nnc(SCc4ccc(Cl)cc4)nc31)C2(C)C (stereo unspecified),.,-3.5%,i
CCN1CCN(c2nc(SC)nc3sc4c(c23)CC(C)(C)OC4)CC1,0.48,4.8%,i
Cc1cc(C)n(-c2ccc(C(=O)NC3=NCCS3)cc2)n1,1.3,6.8%,i
CCCCOc1ccc(Cl)cc1CSc1nnc(CC)n1N,-1,4.0%,i
CCOC(=O)C(Cc1ccccc1)(NC(C)=O)C(=O)OCC,.,-0.5%,i
CN(C)Cc1cc(CN(C)C)c(O)c(CCc2ccccc2)n1,.,-2.3%,i
CCSC1(SCC)N=C(N)C2(C#N)C(c3ccc(F)cc3)C12C#N (stereo unspecified),.,0.8%,i
CCC(=O)Nc1cccc(NC(=O)c2ccc3c(c2)OCO3)c1,0.73,-0.1%,i
Nc1c(N2CCCCC2)c(=O)[nH]c(=O)n1-c1ccccc1,-0.05,3.2%,i
CCN1CCN(C(=O)CN(C)S(=O)(=O)c2ccc(OC)cc2)CC1,3.5,3.0%,i
CCOC(=O)/C=c1\s/c(=C\c2ccccc2OC)c(=O)n1CC(=O)N1CCOCC1,0.1,-1.0%,i
Cc1ccc(C(=O)NCCN(C)C)cc1C,.,-3.1%,i
CN1CCCc2cc(C=O)ccc21,.,-5.7%,i
O=C(NCCN=C1NS(=O)(=O)c2ccccc21)c1ccc(S(=O)(=O)N2CCOCC2)cc1,1.7,9.7%,i
CSc1cccc(NC(=O)C2CCCN(S(=O)(=O)c3ccc(F)cc3)C2)c1 (stereo unspecified),1.4,-5.5%,i
N#Cc1c(NC(=O)CSCC(=O)O)sc2c1CCCC2,0.14,-5.2%,i
Cc1cc(C)n2nc(Nc3ccccc3)cc2n1,-0.92,-2.5%,i
O=C(CSc1nnc(COc2ccccc2)o1)NCCc1ccccc1,0.87,7.9%,i
CCOC(=O)c1[nH]nc2c1C(=O)N(CC)C2=O,0.21,7.8%,i
O=C(CN1CCC(n2nnc3cc(F)ccc32)CC1)Nc1ccc2c(c1)CCC2,-0.92,-4.6%,i
O=C(NCCN1C(=O)C2C3C=CC(C3)C2C1=O)Nc1ccccn1 (stereo unspecified),-0.57,-3.8%,i
CCOc1ccccc1NC(=O)CSc1nc2cccnc2n1C,-1.4,0.8%,i
COc1cc(SC)ccc1C(=O)NCCCOC(C)C,-0.27,4.4%,i
COc1cc2nc(CN(C)CC(=O)Nc3ccc(N4CCOCC4)cc3)[nH]c(=O)c2cc1OC,0.61,4.8%,i
COc1cccc(CNC(=O)Cn2cc3c(n2)CCCCC3)c1,-0.25,-2.3%,i
CC(C)(C)NC(=O)CN(Cc1cccs1)C(=O)CNS(=O)(=O)c1ccccc1,.,4.6%,i
O=P(COCCO)(c1ccccc1)c1ccccc1,2.1,-1.1%,i
C=CCNC(=O)CN1CCC(O)(c2ccc(F)cc2)CC1,1.6,-7.2%,i
COc1ccc(-c2cn3ccccc3n2)cc1OC,-0.79,-1.1%,i
# (list continues)
SMILES,WNV NS2B-NS3 inh,Hsc70,MT1-MMP promoter
CC(O)/C=C/c1cccc[n+]1C (stereo unspecified),0.17,-3.8%,i
Cc1ccc(C)n1C1CCS(=O)(=O)C1 (stereo unspecified),-0.1,13%,i
O=C(CN1CCCCCC1)Nc1cccc2c1OCO2,1.4,-1.0%,i
COc1ccc(C(=O)Nc2ccc(S(=O)(=O)N3CCCCC3)cc2)cc1OC,0.56,-1.6%,i
COC(=O)[C@@H](N)CS,.,-0.9%,i
O=C(Nc1ccn(Cc2ccc(Cl)cc2)n1)c1ccc2c(c1)OCO2,-0.55,2.4%,i
CC1CCc2c(sc(N)c2C(N)=O)C1 (stereo unspecified),0.65,-6.6%,i
CCOc1ccccc1NC(=O)Cn1cnc2c(cnn2-c2ccc(C)c(C)c2)c1=O,-0.08,6.7%,i
CC1=CC(=C2C(=O)c3ccccc3C2=O)C=C(C)O1,-0.43,-0.2%,i
Cc1nc2sc(C(c3cccc(F)c3)N3CCC(O)CC3)c(O)n2n1 (stereo unspecified),-0.0063,-0.5%,i
Cc1cccc(NC(=O)CSc2nnc([C@@H](N)Cc3ccccc3)o2)c1C,.,-1.1%,i
Cc1cc(C)n2nc(SCc3cc(=O)n4ccccc4n3)nc2n1,0.39,-2.5%,i
Cc1cc(Oc2ccccc2)nc(NCc2ccccc2)n1,.,4.4%,i
CNC(=O)CC(C(=O)O)c1ccc(OC(C)C)cc1 (stereo unspecified),-0.79,0.3%,i
O=C(Nc1ccc2nn(-c3ccccc3)nc2c1)c1cccs1,0.69,-1.9%,i

# Looked up one by one from the entries so far:
SMILES,WNV NS2B-NS3 inh,Hsc70,MT1-MMP promoter
N#Cc1c(NC(=O)CSCC(=O)O)sc2c1CCCC2,0.14,-5.2%,i
Cc1nc2sc(C(c3cccc(F)c3)N3CCC(O)CC3)c(O)n2n1 (stereo unspecified),-0.0063,-0.5%,i
NC(=O)CSc1nc2sc3c(c2c2ncnn12)CCCC3,0.002,-3.0%,i
CSc1cccc(NC(=O)C2CCCN(S(=O)(=O)c3ccc(F)cc3)C2)c1 (stereo unspecified),1.4,-5.5%,i

# (next part)
SMILES,WNV NS2B-NS3 inh,Hsc70,MT1-MMP promoter
COC(=O)CS(=O)(=O)c1ccc2c(c1)CC(=O)N2,1.1,6.7%,i
CC(CCc1ccccc1)NC(=O)C(Cc1ccccc1)NS(=O)(=O)c1cccs1 (stereo unspecified),.,1.6%,i
O=S1(=O)N=C2CCCCCN2C(c2ccncc2)N1 (stereo unspecified),-0.74,2.3%,i
CCOc1cc(C2C(C#N)=C(N)OC(C)=C2C(C)=O)c(Br)c(Br)c1OC(C)C (stereo unspecified),.,6.4%,i
COc1ccccc1NC(=O)c1cc(S(=O)(=O)N2CCC3(CC2)OCCO3)ccc1F,-0.52,2.8%,i
O=C(Cn1nnc(-c2cccs2)n1)NCCc1ccccc1,.,2.1%,i
COC(=O)c1ccc(S(=O)(=O)N2CCC(c3nc4ccccc4o3)CC2)cc1,.,-9.5%,i
N#CC(C(=O)CCN1C(=O)C2CC=CCC2C1=O)c1nc2ccccc2[nH]1 (stereo unspecified),0.54,-4.6%,i
CCn1c(SCC(=O)c2[nH]c(C)c(C(C)=O)c2C)nnc1-c1ccccc1,.,-0.8%,i
Cc1cccn2c(=O)c3cc(C(N)=S)c(=N)n(CCCOC(C)C)c3nc12,-0.35,3.4%,i
CC(=O)Nc1ccc(NC(=O)CSc2nccn2Cc2ccccc2)cc1,-0.19,-2.6%,i
Cc1ccc(C2CC(c3ccccc3Cl)n3nc(N)nc3N2)cc1 (stereo unspecified),-1.9,-0.8%,i
COc1ccccc1NC(=O)Nc1ccnn1Cc1cccs1,2.3,0.0%,i
Cc1oc(-c2ccc(Cl)cc2)nc1CN1CCC(C(=O)N2CCc3ccccc3C2)CC1,-0.13,0.9%,i
CCOc1ccc2nc(NS(=O)(=O)Cc3ccccc3)sc2c1,.,-3.8%,i
Cc1c(C(=O)O)oc2c3c(ccc12)OCCO3,0.81,-4.3%,i
COc1ncnc2c1N[C@@](C)(O)c1c(F)c(F)c(F)c(F)c1S2,0.14,-1.8%,i
O=C(O)c1ccc(OC(F)(F)C(F)C(F)(F)F)cc1 (stereo unspecified),-0.94,-3.7%,i
Cc1cc2cc(CN(C(=O)C3CC3)C3CCCC3)c3nnnn3c2cc1C,1.6,0.4%,i

# Screening data deposited in PubChem by several laboratories.
